# Bioassay records (PubChem)
# VDR inh = inhibitors of human vitamin D receptor; P11473; Potency, µM, for inactives: max response, negative = inhibition, hits mostly inhibitors; 400,000 compounds, 0.93% hits; AID 504847; VDR-SRC2-3 peptide fluorescence polarization, 2 h; active = well fitted inhibition curve with a large enough effect; inconclusive = small, poorly fitted or top-dose-only effect, or another doubt; inactive = no such curve, though single readings can be large or run the other way; note: series mostly up to about 120 µM
# Target sequence (P11473 whole entry, looked up): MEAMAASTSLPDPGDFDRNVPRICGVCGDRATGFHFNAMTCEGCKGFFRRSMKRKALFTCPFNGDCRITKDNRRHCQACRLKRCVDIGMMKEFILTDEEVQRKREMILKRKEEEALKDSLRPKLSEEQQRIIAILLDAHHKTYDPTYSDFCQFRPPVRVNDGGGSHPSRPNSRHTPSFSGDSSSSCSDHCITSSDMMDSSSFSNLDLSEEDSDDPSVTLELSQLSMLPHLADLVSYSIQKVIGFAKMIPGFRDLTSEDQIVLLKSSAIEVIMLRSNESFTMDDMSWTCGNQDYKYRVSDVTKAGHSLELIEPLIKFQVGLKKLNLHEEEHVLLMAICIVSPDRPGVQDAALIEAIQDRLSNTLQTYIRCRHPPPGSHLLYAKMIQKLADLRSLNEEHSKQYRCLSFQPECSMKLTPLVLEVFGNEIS
#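 Signal is fluorescence polarization, reporting how far test compounds block the interaction of VDR with the SRC2-3 coregulator peptide after a 2 h room-temperature incubation.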
# Numbers without * were called inactive; ? = inconclusive; & = joins results of further samples; [ ] = remark or other dose. % is set by controls: 0 for no effect and ±100 for the full control effect; potency is the fitted concentration of half-maximal effect. An excerpt (hit frequency here may not be typical).
VDR inh	compound
-14%	O=C(Nc1ccc(O)c(C(=O)O)c1)Oc1ccccc1
-12%	Cc1ccc(N=Cc2c(O)cc(C)oc2=O)c(C)c1
25%	C=CCNC(=S)NNC(=O)c1ccccc1
4%	CCOC(=O)c1oc2cc(OCC(N)=O)ccc2c(=O)c1-c1ccc(OC)c(OC)c1
20%	Cc1nc(C(=O)N2CCc3c([nH]c4ccccc34)C2c2cc(F)ccc2F)cs1 (stereo not given)
4%	O=C(c1cc2sccc2n1Cc1ccccc1)N1CCN(c2nc3ccccc3s2)CC1
7%	Cc1cnc2c(c1SCC(=O)N(C)c1ccccc1)c(=O)n(C)c(=O)n2C
-7%	COc1ccc(CNC(=O)CCc2c(C)nc3cc(-c4ccccc4OC)nn3c2C)cc1
-9%	COc1ccccc1CCNS(=O)(=O)c1c(C)n(C)c(=O)n(C)c1=O
5%	CC1=NN(C(C#N)c2ccccc2)C(C)(C)C1 (stereo not given)
1%	CCCCN(CCCC)C1=Nc2ccccc2N/C1=C(/C#N)C(=O)OCC
3%	Cn1c(Cc2ccccc2)nnc1SCC(=O)Nc1cccc(S(=O)(=O)NC2=NCCCCC2)c1
-4%	Nc1n[nH]c(CO)n1
8%	O=C(NC1(C(F)(F)F)C(=O)Nc2c1c(=O)[nH]c(=O)n2-c1ccc(Cl)cc1)c1ccccc1F (stereo not given)
13%	CCn1nc(C)c(CN2CCC(C(=O)Nc3cccc(-c4cccc(F)c4)c3)CC2)c1C

# Going on with the list:
VDR inh	compound
-6%	NC(=O)c1sc2nc3c(cc2c1N)CCCCCC3
22%	COC(=O)Cn1c(O)c(N=NC(=O)CNC(=O)COc2cccc(C)c2)c2ccccc21
9%	CCc1noc(C)c1C(=O)NCCc1ccc(F)cc1
1%	O=C(c1ccccc1)c1cccc2ccccc12
11%	CCOC(=O)c1ccccc1NC(=O)Cn1cnc2c(oc3ccccc32)c1=O
1%	Cn1cc([N+](=O)[O-])c(C(=O)NNC(=O)c2ccc([N+](=O)[O-])cc2Cl)n1
1%	COc1ccccc1NC(=O)c1nnn(Cc2ccccc2)c1NC(=O)C(F)(F)F
-4%	Cc1ccc(Cl)cc1N1CCN(C(=O)COc2ccc3c(c2)CCC3)CC1
-14%	Cc1cc(C)n(-c2cc(N3CCN(S(=O)(=O)c4ccc(Cl)cc4)CC3)ccc2[N+](=O)[O-])n1
8%	CC(C)Cn1nnnc1S(=O)(=O)Cc1cccc(C#N)c1
-5%	Cc1cc(/C=N\NC(=O)CC(=O)NC2CCCCC2)c(C)n1-c1ccc(Cl)cc1
13%	CN(C)CCCNC(=O)C(=O)Nc1cc2c3c(c1)CCC(=O)N3CCC2
-16%	O=C(CCc1nnc2n(Cc3ccc(F)cc3)c(=O)c3ccccc3n12)NCCN1CCOCC1
6%	CCN1CCc2nc(NC(=O)c3cc(F)c(F)cc3Cl)sc2C1
6%	O=C(c1cccc(NS(=O)(=O)c2ccccc2)c1)N1CCN(c2ccccc2)CC1

# The results go on.
VDR inh	compound
-6%	O=C(NCc1ccccc1)c1ccc(COCC(F)(F)F)o1
0%	COc1ccc(C)cc1-n1c(-c2ccc(C)cc2)cc2c1CC(C)(C)CC2=O
1%	COc1ccc2c(c1)cc1n2CCN=C1NN
-10%	O=C(CSc1nc2ncc(Cl)cc2[nH]1)NCC(=O)Nc1ccc(F)c(F)c1F
-9%	O=C(NNC(=O)C1CCN(Cc2cccc(F)c2)CC1)c1cccc(Cl)c1
12%	O=C(Nc1ncc2c(n1)-c1ccccc1OC2)c1ccc(Cl)cc1
-3%	Cc1noc(C)c1C(=O)N1CCN(C(=O)c2sc3cc(Cl)ccc3c2Cl)CC1
38%[activator]	COc1ccccc1C(=O)NNC(=O)c1ccccc1Br
-3%	O=C(NC1CC(=O)N(c2ccc(F)cc2)C1)C1CCCCC1 (stereo not given)
15%	CCOc1ccc(S(=O)(=O)N2CCc3cc(OC)c(OC)cc3C2)cc1
31%[activator]	COc1ccc(CNC(=O)C2CCN(S(=O)(=O)c3c(C)noc3/C=C/N(C)C)CC2)cc1
-7%	CC(Oc1ccc(Cl)cc1Cl)C(=O)N(Cc1ccco1)C1CCS(=O)(=O)C1 (stereo not given)
6%	Cn1c(SCC(=O)Nc2ccc(N3CCOCC3)c(Cl)c2)nnc1C(O)c1ccccc1 (stereo not given)
1%	COc1ccc(Cl)cc1S(=O)(=O)N1CCC(O)(c2ccc(Cl)cc2)CC1
2%	O=C(CNS(=O)(=O)c1ccc(Br)s1)N1CCN(c2ccccc2F)CC1

# (further entries)
VDR inh	compound
-12%	CNC[C@@H](CC1CCCCC1)NC[C@H](CC(C)C)NCCc1cccc(C(F)(F)F)c1
2%	Cn1c(=O)[nH]c(=O)c2c1nc(N1CCCCC1)n2CCCSc1nc2ccccc2s1
-13%	O=C(COC(=O)c1ccc(Cl)cc1[N+](=O)[O-])NC(=O)c1ccccc1
-1%	O=C(Nc1ccc(CN2CCOCC2)cc1)c1ccc(-c2cc(Cl)ccc2Cl)o1
-9%	CN1CCC(=O)N(CCSc2ccccc2)CC1
-18%	O=C(O)CNC(=S)N(Cc1ccc(F)cc1)C1CCCCC1
0%	COC(=O)c1ccc(CNC(=O)CCNC(=O)c2ccco2)cc1
3%	Cc1ccc(Cn2nnnc2CN2CCC(O)(c3ccccc3F)CC2)cc1
4%	CCC(=O)c1ccc(OCC(=O)Nc2ccc3c(c2)OCCO3)cc1
-11%	O=C(O)CSc1ccc(Oc2ccc(SCC(=O)O)cc2)cc1
2%	COc1ccc(CCCc2n[nH]c(=S)o2)cc1
-2%	CCOc1ccc(-n2c(-c3ccc(OC)cc3)c[n+]3c2CCCCC3)cc1
2%	COc1ccc(NC(=O)c2oc3c(c2C)-c2nn(Cc4ccccc4Cl)cc2CC3)cc1OC
?	CCn1c(C)nc2cc(S(N)(=O)=O)ccc21
17%	Cc1cc(C)c(NC(=O)Cn2ncc3ccccc32)c(C)c1

# (more compounds)
VDR inh	compound
?	C/C=C/C=C\C(=O)Nc1cccc(C2=NOC3(C2)C[C@H](C(N)=O)N(C(=O)/C=C/C)C3)c1 (stereo not given in full)
2%	CNC(=O)c1nnn(Cc2ccccc2)c1NC(=O)C(F)(F)F
11%	Cc1cc(C)cc(N(CCC#N)C(=O)COC(=O)c2nc3nc(C)cc(C)n3n2)c1
11%	Cc1cc(=O)oc(C)c1C(=O)n1nc(C)c2c1C[C@@H]1[C@H]2C1(C)C
-20%	COc1ccc(C2CC2C(=O)c2ccccn2)cc1 (stereo not given)
9%	CCOc1cccc(C(=O)Nc2ccccc2N2CCN(C(=O)C(C)C)CC2)c1
-5%	CSCC(=O)N1CCC(Oc2cccc(C(=O)NCc3ccccn3)c2)CC1
19%	CC1(C)C(=O)Nc2ccccc2N1C(=O)COC(=O)c1ccc(NC(N)=O)cc1
-13%	COc1cccc(OCc2cc(C(=O)NCc3ccc4c(c3)OCO4)no2)c1
-15%	CCc1c(O)nc(SCC(=O)Nc2nc3ccccc3s2)n(-c2ccccc2)c1=O
-5%	C=CCNc1nc(C(F)(F)F)nc2c1nnn2Cc1ccccc1Cl
-6%	O=C(O)[C@@H]1CCCN1C(=O)COc1ccc2c3c(c(=O)oc2c1)CCC3
-3%	Clc1ccc2nc(NCc3ccccc3)c3nncn3c2c1
1%	CN(C)Cc1nc2c(c(=O)[nH]1)C1(CCCCC1)Cc1ccccc1-2
1%	COc1ccccc1Oc1nc(-c2cccnc2)nc2ccccc12

# Additional entries
VDR inh	compound
-11%	CCOC1OC(=O)C(Cl)=C1Nc1ccc(C)cc1C (stereo not given)
-4%	C=CCOc1c(CNc2cccc(C(=O)O)c2)cccc1OC
3%	COC(=O)c1cn(NC(=O)c2ccc([N+](=O)[O-])c(C)c2)c(=O)c2ccccc12
7%	COc1cc(/C=C/C(=O)NC(=O)c2ccccc2O)ccc1OC(C)=O
2%	CCC(=O)Nc1c(C)n[nH]c1C
17%	Cc1ccncc1CNC(=O)c1ccccc1
5%	COc1ccc(NC(=O)c2cc(C3CC3)nc3c2c(C)nn3-c2ccccc2)cc1
-3%	O=C(OCc1ccccc1)N1CCc2ccccc21
-17%	CCc1c(C)sc(NC(=O)C2CC2)c1C(=O)OC(C)C
-5%	O=C(O)c1ccc2c(c1)SC1=NS(=O)(=O)CCN12
6%	CSc1ccccc1C(=O)NC1CCCCCC1
-15%	Cc1nn(-c2ccccc2)c(N)c1Sc1cccc([N+](=O)[O-])c1
-13%	O=C(NCc1ccccc1F)C12CC3CC(CC(C3)C1)C2
5%	COc1ccccc1-c1noc2ncnc(Nc3cccc(C)c3C)c12
-12%	CN(C)c1ccc(NC(=O)/C=C/c2ccccc2Cl)cc1

# Next entries
VDR inh	compound
-8%	Cc1nc(NCCc2ccc(S(N)(=O)=O)cc2)c2c3c(sc2n1)CCC3
-1%	O=C(CSc1ccccc1)Nc1ccc(-c2nc3ccccc3[nH]2)cc1
-8%	CC(C)c1ccc(NC2CCCN(C(=O)CCc3cnn(C)c3)C2)cc1 (stereo not given)
-6%	Cc1noc(C)c1COc1ccccc1C(=O)NCc1ccco1
-11%	Cn1nc(C(F)(F)F)c(C(=O)Nc2cccc(Cl)c2)c1Cl
1%	O=C(c1ccc(COc2ccccc2[N+](=O)[O-])o1)N1CCCCCC1
-5%	Nc1nc(SCC(=O)NC2CCCc3ccccc32)n[nH]1 (stereo not given)
-18%	Cc1ccc2c(c1)c(CC(=O)Nc1ccc(F)cc1)c(C(=O)O)n2C
-19%	COC(=O)CN=C1OC(=O)N2C(=O)C3=C4[C@@H](C[C@H]5C(=O)N(c6ccccc6)C(=O)[C@H]5[C@H]4[C@@]12Cc1ccccc1)[C@H]1C(=O)N(c2ccccc2)C(=O)[C@H]1[C@H]3C
4%	C=CCn1c(O)c(C(CC)=NCc2cccnc2)c(=O)[nH]c1=O
-29%	Cc1cnc(CNc2ncnc3ccc(-c4ccccc4C(F)(F)F)cc23)cn1
15%	CCOC(=O)COc1ccc2c(=O)c(-c3ccccc3)coc2c1
4%	O=C(/C=C/c1cccc(Cl)c1)NCCCN1CCOCC1
-13%	CCOC(=O)C1CCN(CC(=O)Nc2cc(S(=O)(=O)N3CCCCC3)ccc2Cl)CC1
-6%	COc1ccc(NC(=O)N2CCCCCC2)cc1OC

# Reformatted: results already given.
Cc1noc(C)c1COc1ccccc1C(=O)NCc1ccco1
  VDR inh: -6%
Cn1nc(C(F)(F)F)c(C(=O)Nc2cccc(Cl)c2)c1Cl
  VDR inh: -11%
O=C(c1ccc(COc2ccccc2[N+](=O)[O-])o1)N1CCCCCC1
  VDR inh: 1%
Nc1nc(SCC(=O)NC2CCCc3ccccc32)n[nH]1 (stereo not given)
  VDR inh: -5%

# Remaining list, next part.
VDR inh	compound
12%	O=c1cc(NCc2ccco2)c2ccccc2o1
-5%	CCNc1nc(NC(C)C)nc(Oc2ccc(=O)n(C)n2)n1
5%	CN1CCC(N(C)C(=O)/C(C#N)=C/c2ccccc2)CC1
2%	CCCCCN(C(=O)CCC(=O)OCC(=O)NC1CCC(C)CC1)c1c(N)n(CCCC)c(=O)[nH]c1=O (stereo not given)
-7%&2%	CCc1nn2c(=O)c(S(=O)(=O)Nc3ccc(Cl)cc3)c(C)nc2s1
45%[activator]	Cc1c(C2CC(=O)N(c3ccccc3)C2=O)[nH]n(-c2ccccc2)c1=O (stereo not given)
5%	CCC(C)c1ccc(NC(=O)c2[nH]c(C)c(C(C)=O)c2C)cc1 (stereo not given)
11%	CC(c1nc2ccccc2n1Cc1ccccc1)N1CCCCC1 (stereo not given)
15%	NC(=O)COc1ccc2c3c(c(=O)oc2c1)CCCCC3
-8%	CCOc1ccc(CCNC(=O)c2ccc3c(c2)sc2nc(-c4ccc(F)cc4)cn23)cc1OCC
20%	CN(C)C(=O)c1ccc(-n2cnc3ccccc3c2=O)cc1
-12%	CN(C)/C=N/c1cnc(C(=O)c2ccc(Cl)cc2)n1C
3%	CCOc1ccc(N(CC(=O)N2CCCC2)S(=O)(=O)c2ccc(Cl)cc2)cc1
4%	CCN1CCN(C(=O)CCc2nnc(CCc3c[nH]c4ccccc34)o2)[C@@H](C)C1=O
-2%	S=C1NCCOCCOCCOCCOCCNC(=S)N2CCOCCOCCN1CCOCC2

# (more compounds)
VDR inh	compound
3%	Cn1cnc([N+](=O)[O-])c1Sc1ncccc1N
-4%	CS(=O)(=O)N1CCCC(C(=O)N2CCN(c3cccc(Cl)c3)CC2)C1 (stereo not given)
-1%	CCOC(=O)c1c(C)nc2ccc(C)cn12
14%	CCOn1c(=O)c(-c2ccc(C)cc2)[n+]([O-])c2ccccc21
23%	S=C1NC2(CCCC2)N=C1c1ccccc1
12%	Nc1c(-c2cccs2)cnn1-c1nc(-c2ccc(Cl)cc2Cl)cs1
18%	O=C(CSc1nnnn1Cc1ccccc1)Nc1ccc2c(c1)OCO2
-24%	O=C(O)C1CCN(Cc2oc(CO)cc(=O)c2O)C1 (stereo not given)
-6%	CCCn1cc(NC(=O)C2CC(c3cccc(Br)c3)=NO2)cn1 (stereo not given)
?	O=C(Nc1cccc(F)c1)C1CCN(C(=O)c2ccc(Cl)cc2)CC1
8%	CCCC(=O)NC1=C(C#N)C2(CCCC2)Cc2ccccc21
2%	CCOc1ccc(NC(=O)Cn2c(=O)n(CCC(=O)NCCc3ccccc3)c(=O)c3ccccc32)cc1
?	COc1ccc(OC)c(/C=C2\SC(=S)N(C(C(=O)O)c3ccccc3)C2=O)c1 (stereo not given)
-4%	CCN(CC)C(C(=O)Nc1ccc2c(c1)OCO2)c1ccccc1 (stereo not given)
7%	CC(=O)Nc1cc2c(cc1NC(=O)Cn1nc(-c3ccc4c(c3)OCCO4)ccc1=O)OCCO2
-13%	CCOc1ccc(C(=O)N[C@H](C(=O)Nc2ccc(S(=O)(=O)Nc3nccs3)cc2)C(C)C)cc1

# 2 compounds drawn at random from the list so far, as already listed:
VDR inh	compound
-8%	CC(C)c1ccc(NC2CCCN(C(=O)CCc3cnn(C)c3)C2)cc1 (stereo not given)
18%	O=C(CSc1nnnn1Cc1ccccc1)Nc1ccc2c(c1)OCO2
